HNF4A DNA FP: change in binding of human HNF4A to DNA, primary screen, biochemical, fluorescence polarization, FITC-DNA. AID 1224865, 2016. Hepatocyte nuclear factor 4-alpha (Homo sapiens), P41235. actives 0.3% (n = 360,000). activity change, % at 10 µM. 1 h; in the data active = activity change above about 30%, passing the limit was not always enough;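 note: controls were the assay level and a saturating level of protein; the project sought stronger binding though the title names inhibitors; some compounds called inactive have numbers as strong as hits; positive values seem to mean higher polarization but the record does not say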
Target sequence (P41235 whole entry, looked up): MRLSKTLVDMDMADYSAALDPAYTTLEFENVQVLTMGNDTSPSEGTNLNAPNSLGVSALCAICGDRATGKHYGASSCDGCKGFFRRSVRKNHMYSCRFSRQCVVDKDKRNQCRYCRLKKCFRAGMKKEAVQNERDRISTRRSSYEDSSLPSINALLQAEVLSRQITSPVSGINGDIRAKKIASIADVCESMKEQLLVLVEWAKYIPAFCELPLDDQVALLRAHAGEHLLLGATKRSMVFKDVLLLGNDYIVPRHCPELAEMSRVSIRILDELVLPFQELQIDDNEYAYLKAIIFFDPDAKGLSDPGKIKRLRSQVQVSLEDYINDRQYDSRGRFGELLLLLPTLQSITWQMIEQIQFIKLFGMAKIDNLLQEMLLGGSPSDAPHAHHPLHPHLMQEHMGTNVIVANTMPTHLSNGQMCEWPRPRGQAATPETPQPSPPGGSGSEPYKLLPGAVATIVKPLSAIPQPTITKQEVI
RanGTP-Imp inh: inhibitors of RanGTP-importin-beta interaction, primary screen, biochemical, FRET, CFP-Ran, YFP-importin-beta, homogeneous; inhibition, % (test concentration not listed); cell-free CFP-Ran/YFP-importin-beta FRET ratio; actives 1.1% (n = 300,000); AID 2216, 2009;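 active = most replicates above 15%; inconclusive = exactly half above 15%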;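 note: 0% = DMSO wells and 100% = Ran loaded with GDP instead of GTP; wells of about 40 µL received 100 nL stock; the first replicate is given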
FGF22 binding: binders of human FGF22 protein, primary screen, FGF22 synaptogenesis inhibitor project, biophysical, thermal shift, single point. Fibroblast growth factor 22 (Homo sapiens), Q9HCT0. actives 1.5% (n = 340,000). recombinant FGF22 thermal shift, SYPRO orange fluorescence; percent of sucrose octasulfate shift, DMSO zero. calls only at 9.99 µM;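 active = melting point raised past a set limit in the mean and every replicate; inconclusive = no clear call; three in four hits are not shown here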
Target sequence (Q9HCT0 whole entry, looked up): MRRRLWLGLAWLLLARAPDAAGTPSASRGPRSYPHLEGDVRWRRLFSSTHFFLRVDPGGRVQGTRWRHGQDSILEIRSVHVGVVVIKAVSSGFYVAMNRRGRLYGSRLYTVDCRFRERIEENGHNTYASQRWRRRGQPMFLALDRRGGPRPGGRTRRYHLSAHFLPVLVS
Vif A3G: inhibitors of Vif binding to APOBEC3G peptide, primary screen, biochemical, TR-FRET, GST-Vif 1-94, biotin-A3G peptide, dose response retest (AID 1117319); Virion infectivity factor (Human immunodeficiency virus type 1 group M subtype B (isolate …; TR-FRET GST-Vif / biotin-A3G peptide binding; higher % means a stronger effect; test concentration not given here; strong numbers were not always called active; inhibition, %; hits with a dose series show IC50 in µM; actives 0.57% (n = 260,000);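 active = above the screen mean plus three standard deviations and confirmed in dose response; inconclusive = results disagree or hit not tested in dose response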;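 note: Vif residues 1-94 fused to GST binding biotinylated APOBEC3G peptide 110-148; 0% = full assay without inhibitor and 100% = GST in place of GST-Vif; retest series ran down from 100 µM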
Ecoli growth: E. coli growth inhibition, primary screen, OD600. Escherichia coli growth, 23 h; stronger effect = lower value. OD600 absorbance (test concentration not listed). actives 0.21% (n = 330,000);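 active = OD600 absorbance below the run mean of sample wells minus 3.6 SD, in any replicate, cut at about 0.56 in these data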;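 note: stock transfer was 300 nL into about 60 µL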
UCH37 inh: inhibitors of human UCH37 deubiquitinase, primary screen, biochemical, Ub-AMC cleavage, fluorescence; Ubiquitin carboxyl-terminal hydrolase isozyme L5 (Homo sapiens), Q9Y5K5; purified proteasome/UCH37; inhibition, % (no concentration beside the values); actives 0.33% (n = 330,000); AID 588478, 2011;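 active = mean of two replicates above 20%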;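 note: 0% = compound-free wells with enzyme and 100% = wells lacking proteasome; stock transfer was 100 nL into about 20 µL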
Target sequence (Q9Y5K5 whole entry, looked up): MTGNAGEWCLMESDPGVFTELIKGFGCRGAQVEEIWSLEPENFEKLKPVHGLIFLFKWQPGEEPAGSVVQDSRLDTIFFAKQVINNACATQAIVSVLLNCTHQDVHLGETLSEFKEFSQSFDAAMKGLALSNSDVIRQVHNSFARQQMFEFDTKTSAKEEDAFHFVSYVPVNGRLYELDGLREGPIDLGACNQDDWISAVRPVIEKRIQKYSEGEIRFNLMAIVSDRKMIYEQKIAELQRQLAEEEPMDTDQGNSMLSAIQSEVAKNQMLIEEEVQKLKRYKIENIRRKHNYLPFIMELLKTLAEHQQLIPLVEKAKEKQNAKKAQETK
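Material: Human UCH37 enzyme supplied as purified proteasome complex | Schedule: 30 min preincubation with enzyme, 25 min cleavage at room temperature | Detection: AMC fluorescence 355/460 nm | Measure: % inhibition of Ub-AMC cleavage fluorescence | Controls: Wells without proteasome as full block, compound-free enzyme plus substrate as uninhibited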
MLL AF4-AF9 inh: inhibitors of AF4 peptide binding to AF9, primary screen, biochemical, AlphaScreen, biotin-AF4 peptide, FLAG-AF9, single point | Protein AF-9 (Homo sapiens), P42568 | inhibition, % at 10 µM | actives 0.47% (n = 350,000) | AID 651704, 2012;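 active = every replicate reaching a set inhibition limit, whatever the replicate mean, cut at about 25% in these data; inconclusive = mean inhibition reaches that limit but some replicates miss it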;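 note: 0% = plate neutral control median and 100% = total signal loss; the record names both 10 and 1 µM as test concentration; the first replicate is given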
* marks the source's active call; other numbers are inactive results; i = inactive; u = inconclusive; x = not tested or not shown; + = active, no number; & = joins results of further samples. The list is partial. The share of hits here may be higher or lower than overall.

no.	SMILES	Ecoli growth	Vif A3G	RanGTP-Imp inh	HNF4A DNA FP	FGF22 binding	UCH37 inh	MLL AF4-AF9 inh
1	CN(C)S(=O)(=O)c1cccc(COC(=O)C2=COCCO2)c1	0.72	11%	1.0	-0.9	x	1.5	x
2	CCOc1ccc(C(C)C)cc1S(=O)(=O)n1ccnc1C	0.68	14%	0.0	0.5	i	1.1	-2.8
3	COc1ccc(CCNC(=O)C(=O)Nc2ccc3nc4n(c(=O)c3c2)CCCCC4)cc1OC	0.71	10%	0.5	2.0	i	0.1	-1.3
4	O=[N+]([O-])c1cnccc1-n1nnc2ccccc21	x	x	x	4.5	i	x	-4.2
5	Cc1ccsc1CN(C)c1ncnc2ccc(-c3ccoc3)cc12	x	x	x	9.9	i	x	-1.5
6	O=C(Cc1ccccc1)Nc1ccc(S(=O)(=O)N2CCCC2)cc1	0.68	x	-1.8	1.0	i	0.5	-9.9
7	CCN1C(=O)[C@H]2[C@@H](c3ccc(OC)cc3)N[C@]3(CCCN(Cc4ccc(C)cc4)C3=O)[C@H]2C1=O	x	x	x	-0.9	i	x	3.6
8	O=C(NCCc1ccc(Cl)cc1Cl)c1ccc2nc[nH]c2c1	0.71	2%	1.9	3.2	i	4.1	-7.7
9	COc1ccc(CC(=O)NNC(=O)c2ccccc2)cc1OC	0.69	x	x	0.3	i	1.9	-1.7
10	Cc1ccc(S(=O)(=O)n2cc(CO)c3ccccc32)cc1	x	3%	x	-2.3	i	x	-2.8
11	Cc1ccc(C(=O)Nc2ccc(N3CCOCC3)c3nonc23)cc1[N+](=O)[O-]	0.67	x	3.9	2.8	i	3.4	2.7
12	O=C(CCCCCN1C(=O)c2cccc3cccc(c23)C1=O)NCCCO	0.66	x	4.4	3.4	i	-121	-0.2
13	c1nc(NCCN2CCOCC2)c2sc3nc(N4CCOCC4)c4c(c3c2n1)CCC4	0.62	-3%	0.3	2.6	i	-56	4.3
14	Cc1noc(C)c1S(=O)(=O)N(C)C[C@H]1Oc2c(NC(=O)NC3CCCCC3)cccc2C(=O)N([C@H](C)CO)C[C@@H]1C	x	x	x	-0.6	i	8.3	x
15	Cc1cc(C)n(-c2ccc(C(=O)NCC(c3ccco3)N3CCCC3)cc2)n1 (stereo not given)	0.69	x	x	-3.0	i	2.3	3.0
16	Cc1cc(NS(=O)(=O)c2ccc(NC(=O)CCSc3ccc(F)cc3)cc2)nc(C)n1	0.67	-9%	3.2	-3.0	i	1.6	-4.9
17	COC(=O)c1sccc1NC(=S)N1CCN(c2cccc(C)c2C)CC1	0.74	6%	-0.4	-0.6	x	-1.0	x
18	N#Cc1c(-c2cccs2)cc(-c2ccccn2)nc1N	0.8	-13%	3.6	-0.4	x	-78	x
19	COc1ccc2c(c1OC)C(=O)N(c1ncn[nH]1)C2	0.64	-2%	1.3	4.4	x	-9.1	x
20	NC(=S)Nc1cccc2[nH]ccc12	0.73	x	0.8	0.5	i	1.2	2.3
21	COc1cccc(CNC(=O)CCS(=O)(=O)c2ccc3c(c2)CC(C)N3C(=O)C2CC2)c1 (stereo not given)	0.69	0%	0.7	1.7	i	1.5	2.2
22	O=C(NC(Cc1ccccc1)c1nc2ccccc2[nH]1)c1cccc([N+](=O)[O-])c1 (stereo not given)	0.71	66%	-2.4	-2.3	i	4.1	4.6
23	Cc1nc(SCC(=O)N2CCCc3ccccc32)c2oc3ccccc3c2n1	0.73	4%	-5.6	1.6	i	2.8	4.2
24	CC(C)(C)c1ccc(-c2cnco2)cc1	0.68	0%	3.8	-0.7	i	0.5	0.9
25	Cc1[nH]n(-c2ccccc2)c(=O)c1N=Nc1cccc(S(=O)(=O)N2CCOCC2)c1	0.7	x	2.0	2.9	i	4.8	5.0

Next part.
no.	SMILES	Ecoli growth	Vif A3G	RanGTP-Imp inh	HNF4A DNA FP	FGF22 binding	UCH37 inh	MLL AF4-AF9 inh
26	CC(=O)OC1COC(n2ccc3cc([N+](=O)[O-])ccc32)C(OC(C)=O)C1OC(C)=O (stereo not given)	0.69	-8%	-1.3	2.5	x	6.1	x
27	Cc1ccc(C(=O)c2ccc(N3CCN(C)CC3)c([N+](=O)[O-])c2)cc1	0.66	x	u	1.7	x	7.8	x
28	Cc1ccc(C)c(OC(=O)CN2C(=O)c3ccccc3C2=O)c1	0.63	x	-2.8	1.7	i	3.9	-1.3
29	Cc1ccc(C)c(N=C2NC(=O)CS2)c1	0.72	1%	-0.8	-1.3	x	-1.7	x
30	Cc1ccc(S(=O)(=O)N(C)CC(=O)OCC(=O)Nc2ccccc2)cc1	0.67	0%	-2.4	-0.8	i	2.7	0.3
31	Cc1[nH]c2ccccc2c1C(=O)C(=O)NC1CC(=O)N(c2ccc(F)cc2)C1 (stereo not given)	0.69	-4%	3.1	-2.4	i	4.2	-0.6
32	O=C1NC[C@@H](CCCCN2C[C@H](Cc3ccccc3)N(CCc3ccccc3)C(=O)C2=O)N(CCc2ccccc2)C1=O	x	x	x	0.2	i	x	18
33	CCN(CC)C(=O)c1c[nH]c2ccc(S(=O)(=O)Nc3cc(C)cc(C)c3)cc2c1=O	0.76	6%	x	0.0	x	-6.8	x
34	CCCCC(CC)C(=O)Nc1ccc(Cl)cn1 (stereo not given)	0.7	1%	1.0	1.6	x	1.4	x
35	CCOCCCNC(=O)Cc1ccc(Br)cc1	0.73	1%	-5.1	-2.9	x	2.4	x
36	Cc1ccc2cc(CN(c3ccccc3C)S(=O)(=O)c3ccccc3)c(=O)[nH]c2c1	0.69	-18%	-1.5	3.9	i	-10	-0.4
37	CC(C)CCn1c(SC(C)C(=O)NC2CC2)nc2ccccc2c1=O (stereo not given)	0.68	0%	-6.9	-1.6	i	6.7	u
38	CC(C)(C)C1CCC(C(=O)Nc2ccccc2N2CCOCC2)CC1 (stereo not given)	0.68	-13%	x	1.3	i	-2.2	1.9
39	N#CC(C(=O)Nc1ccc(Cl)cc1)=C1Nc2ccccc2N1	0.71	-10%	0.8	-1.4	x	0.1	x
40	COCCn1nnnc1C(c1ccccc1)N1CCN(c2ccccc2)CC1 (stereo not given)	0.74	u	1.2	2.5	x	8.0	x
41	CNC(=O)CC(=O)Nc1ccccc1C(=O)O	0.7	-7%	4.2	0.3	x	-0.5	x
42	N#CCC(=O)Nc1sc2c(c1C(N)=O)CCCC2	0.72	22%	u	4.5	i	7.4	-0.9
43	CC(=O)c1ccc(N2CCN(C(=O)CCS(=O)(=O)c3ccc4c(c3)CCN4C(C)=O)CC2)cc1	0.66	-6%	0.5	7.1	i	2.2	2.8
44	CCCn1nnc(NC(=O)COc2ccc(C3CCCCC3)cc2)n1	0.58	29%	6.1	-3.0	i	1.1	16
45	O=C(c1csc2c1CCCC2)N1CCCCC1	0.72	-1%	0.2	1.9	x	5.2	x
46	Cc1nc(-c2ccc(S(=O)(=O)Nc3ccc(S(N)(=O)=O)cc3)cc2)co1	0.63	x	3.5	-0.1	i	0.1	0.8
47	Cc1cc(NC(=O)/C=C/c2cccc(Cl)c2)n(-c2nc3ccccc3[nH]2)n1	x	-11%	-2.7	-4.0	x	1.0	x
48	Cc1ccc(C(=O)NCC(=O)OCC(=O)c2ccc3c(c2)OCCO3)cc1C	0.74	-1%	1.8	0.3	x	5.0	x
49	CCOC(=O)C1(CCOC)CCN(C(=O)c2ccccc2-c2cccc(C)c2)CC1	0.64	8%	1.4	-3.9	i	3.9	-11
50	Cc1ccc(OCCCC(=O)NNC(=O)c2ccncc2)cc1	0.63	7%	-1.2	-3.7	x	4.8	-0.9

3 compounds already listed, ordered by the number in RanGTP-Imp inh, lowest first.
#	structure	RanGTP-Imp inh
37	CC(C)CCn1c(SC(C)C(=O)NC2CC2)nc2ccccc2c1=O (stereo not given)	-6.9
46	Cc1nc(-c2ccc(S(=O)(=O)Nc3ccc(S(N)(=O)=O)cc3)cc2)co1	3.5
41	CNC(=O)CC(=O)Nc1ccccc1C(=O)O	4.2

More compounds.
no.	SMILES	Ecoli growth	Vif A3G	RanGTP-Imp inh	HNF4A DNA FP	FGF22 binding	UCH37 inh	MLL AF4-AF9 inh
51	O=C(CSCc1ccccc1)N/N=C/c1ccc(OCC(=O)N2CCCCC2)cc1	x	12%	1.3	-2.9	i	x	7.0
52	O=C(NCc1cccs1)C12CC3CC(CC(C3)C1)C2	0.67	4%	5.2	5.1	i	1.2	-0.3
53	O=C(NCC1COc2ccccc2O1)C1CCCN(S(=O)(=O)c2cccc3cccnc23)C1 (stereo not given)	0.69	0%	x	-5.3	i	0.6	-0.3
54	O=C1C(=O)N(CNc2ccccn2)c2ccccc21	0.66	9%	1.3	-0.2	x	2.8	x
55	CC(C)C(=O)c1cc2c(cc1NC(=O)Nc1cccc3ccccc13)OCCO2	0.7	12%	u	x	x	-2.4	x
56	CCn1c(SCC(=O)NC)nnc1C(C)C	0.69	-8%	2.5	5.9	x	1.0	x
57	O=C(OCc1nc2ccccc2[nH]1)C12CC3CC(CC(C3)C1)C2	0.64	6%	9.1	-0.1	x	0.6	x
58	CCOc1ccc(C(=O)NC(=S)Nc2ccc(NC(=O)CC)cc2)cc1[N+](=O)[O-]	0.71	12%	-0.6	-6.1	x	3.8	x
59	CCCC(=O)c1ccc(OCc2cn(CC(=O)c3ccc(O)cc3)nn2)cc1	x	x	x	0.0	+	x	1.1
60	Cc1nn(CC(=O)c2ccc(Cl)s2)c(C)c1[N+](=O)[O-]	0.68	x	2.5	15	i	2.7	-1.2
61	Cc1c(C(=O)OC(C)C)[nH]c2c1C(=O)CCC2	0.68	-2%	2.5	-0.6	x	1.1	x
62	Cc1ccc(S(=O)(=O)N2CCN(C(=O)C3Cc4ccccc4CN3C(=O)c3ccco3)CC2)cc1 (stereo not given)	0.76	-4%&1%	-5.8	1.9	x	4.8	x
63	O=C(COc1ccc([N+](=O)[O-])cc1)Nc1ccc2c(c1)CCC2	0.65	x	x	1.8	i	1.1	1.0
64	COc1cccc(NC(=O)COC(=O)COc2cccc3c2OC(C)(C)C3)c1	0.71	x	3.6	0.3	i	3.2	-2.0
65	CCO[C@@H]1OC(C(=O)NCc2ccccc2)=C[C@H](C)[C@H]1CCCO	x	x	1.7	1.6	i	2.4	x
66	CCN(CC)c1cc(NCCO)c([N+](=O)[O-])c2nonc12	0.7	1%	2.4	-1.4	x	19	x
67	O=C(COc1ccc(-c2nnco2)cc1)Nc1ccc(C(F)(F)F)cc1	0.68	2%	u	-0.9	i	2.1	-4.2
68	COc1ccc(OC)c(NC(=O)Cn2cc(C=O)c3ccccc32)c1	0.71	-4%	-2.4	-0.3	x	3.4	-0.8
69	CC(=O)c1ccc(N2CCN(c3ccc(S(=O)(=O)NCCCN(C)C)cc3[N+](=O)[O-])CC2)cc1	0.68	7%	-1.9	0.0	i	12	18
70	CC(C)OP(=O)(OC(C)C)C(Nc1ccc(C(=O)O)cc1)c1ccccc1 (stereo not given)	0.65	-1%	-2.4	0.3	x	-19	-17
71	O=S(=O)(Nc1ccc(N2CCOCC2)cc1)c1cc(Cl)ccc1Cl	0.61	x	-5.0	-0.2	i	2.7	2.6
72	CCOC(=O)C1CCN(S(=O)(=O)CCNC(=O)c2cccc(OC)c2)CC1	0.69	-2%	1.3	1.3	i	2.5	-48
73	Nc1nonc1C(=Nc1ccccc1)NO	0.68	5%	8.0	-2.2	x	3.3	x

Bioassay records: PubChem BioAssay, several laboratories
